NPYLR7 ag: activates Aedes aegypti NPYLR7 receptor; HEK293T NPYLR7/Galpha15, GCaMP6s calcium fluorescence; activation, % at 10 µM; actives 0.15% (n = 270,000); AID 1259423; in the data active means activation above about 40%;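 further: 0% = vehicle and 100% = reference agonist at the receptor; some compounds past the cut are filed as inactive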
NPYLR7 ag max-min: second read-out of NPYLR7 ag, no call of its own (marks repeat the call); activation, %; measured here: Max-Min RFU normalised activation; some inactives read as strong as hits;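 span of the calcium signal over five minutes; 0% = vehicle and 100% = native peptide agonist; compound fluorescence can raise it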
* hit, by the source's call; & = joins results of further samples.

Preview:
SMILES | NPYLR7 ag | NPYLR7 ag max-min
CC(C1CC1)N(Cc1ccccc1)C(=O)C1CCCN(C(=O)c2cccs2)C1 (stereo not drawn) | -3 | -6
O=C(Nc1ccc2ncccc2c1)c1cccc(CN2CC=CC2)c1 | 0 | -9
Cc1occc1C(=O)Nc1ccc(F)c(N2CCCS2(=O)=O)c1 | 8 | 3
O=S(=O)(NNc1c(F)c(F)c(F)c(F)c1F)c1ccc(Cl)c(Cl)c1 | 0 | -1
CCc1ccc(C(C2Sc3nc(CC)nn3C2=O)N2CCOCC2)cc1 (stereo not drawn) | -2 | -5

All compounds of this part, repeating the preview:
SMILES | NPYLR7 ag | NPYLR7 ag max-min
CC(C1CC1)N(Cc1ccccc1)C(=O)C1CCCN(C(=O)c2cccs2)C1 (stereo not drawn) | -3 | -6
O=C(Nc1ccc2ncccc2c1)c1cccc(CN2CC=CC2)c1 | 0 | -9
Cc1occc1C(=O)Nc1ccc(F)c(N2CCCS2(=O)=O)c1 | 8 | 3
O=S(=O)(NNc1c(F)c(F)c(F)c(F)c1F)c1ccc(Cl)c(Cl)c1 | 0 | -1
CCc1ccc(C(C2Sc3nc(CC)nn3C2=O)N2CCOCC2)cc1 (stereo not drawn) | -2 | -5
O=C(Nc1ccc(Cl)cc1)c1cccc(S(=O)(=O)NCc2ccccc2)c1 | -6 | -9
CCCc1nc(N2CCCN(C(=O)c3cccc(Br)c3)CC2)c2c(-c3cccc(C(F)(F)F)c3)noc2n1 | 18 | 2
CCNC(=S)N(C)c1ccc(O)cc1 | 1 | -1
COCC1CCN(c2ccc(C(=O)N3CCC(N4CCOCC4)CC3)cn2)C1 (stereo not drawn) | 6 | 3
COc1cccc(NC(=O)C(C)N2CCC(C)CC2)c1 (stereo not drawn) | 7 | 7
CCOC(=O)c1cc(C(C)(C)C)n(C2CCN(C(=O)COCc3ccccc3)CC2)n1 | 4 | 2
NC1=NC2(CCCCC2)N=C(Nc2cccc(F)c2)N1 | 20 | 17
Cc1cccc(C(=O)N2CCC(n3cnc4ccc(F)cc43)CC2)c1 | 3 | -2
COCc1ccc(C(=O)NC(CC(N)=O)C2CCCCC2)cc1 (stereo not drawn) | 2 | 2
Cc1ccc2c(c1)C1(SCCN1C(=O)C1CCCC1)C(=O)N2Cc1c(F)cccc1F (stereo not drawn) | 4 | 2
COC(=O)c1ccccc1NC(=O)CSc1nc(C)nc2c1oc1ccccc12 | -7 | -6
CCC(=O)Nc1ccc(-c2nc3cc(Cl)ccc3o2)cc1 | 23 | 26
CCCn1nc(-c2ccccc2)c2sc(N3CCCC3)nc2c1=O | -3 | -7
CC1CCN(C(=O)CSc2nc(=O)[nH]c3c2CCCC3)CC1 | -1 | -3
Cc1n[nH]c(C)c1S(=O)(=O)N1CCCC(C(=O)c2cccc(Cl)c2)C1 (stereo not drawn) | 13 | 4
CC(=O)C1=C(c2ccc([N+](=O)[O-])cc2)N(C(C)=O)n2cnnc2S1 | 6 | 2
Cc1cccc2nc(CNc3ccc(C#N)cc3)cc(=O)n12 | 8 | 7
COc1cccc(CNC(=O)CCC2CCCN(C(=O)Cc3cccc(C)c3)C2)c1 (stereo not drawn) | -2 | -5
O=C(CCc1ccccc1)OCCCC(F)(F)C(F)(F)F | -14 | -19
Cc1[nH]n(-c2nc(-c3cccc([N+](=O)[O-])c3)cs2)c(=O)c1N=Nc1cccc(Br)c1 | -11 | -14

An excerpt of these results, with values under each structure:
Results follow in this order: NPYLR7 ag | NPYLR7 ag max-min
> CC(C1CC1)N(Cc1ccccc1)C(=O)C1CCCN(C(=O)c2cccs2)C1 (stereo not drawn)
→ -3 | -6
> O=C(Nc1ccc2ncccc2c1)c1cccc(CN2CC=CC2)c1
→ 0 | -9
> Cc1occc1C(=O)Nc1ccc(F)c(N2CCCS2(=O)=O)c1
→ 8 | 3
> O=S(=O)(NNc1c(F)c(F)c(F)c(F)c1F)c1ccc(Cl)c(Cl)c1
→ 0 | -1

A draw from above in order of formula weight, falling:
SMILES | NPYLR7 ag | NPYLR7 ag max-min
Cc1[nH]n(-c2nc(-c3cccc([N+](=O)[O-])c3)cs2)c(=O)c1N=Nc1cccc(Br)c1 | -11 | -14
O=S(=O)(NNc1c(F)c(F)c(F)c(F)c1F)c1ccc(Cl)c(Cl)c1 | 0 | -1
Cc1cccc(C(=O)N2CCC(n3cnc4ccc(F)cc43)CC2)c1 | 3 | -2

An excerpt of these results, with each value named:
CC(C1CC1)N(Cc1ccccc1)C(=O)C1CCCN(C(=O)c2cccs2)C1 (stereo not drawn)
  NPYLR7 ag: -3 | NPYLR7 ag max-min: -6

O=C(Nc1ccc2ncccc2c1)c1cccc(CN2CC=CC2)c1
  NPYLR7 ag: 0 | NPYLR7 ag max-min: -9

Cc1occc1C(=O)Nc1ccc(F)c(N2CCCS2(=O)=O)c1
  NPYLR7 ag: 8 | NPYLR7 ag max-min: 3

O=S(=O)(NNc1c(F)c(F)c(F)c(F)c1F)c1ccc(Cl)c(Cl)c1
  NPYLR7 ag: 0 | NPYLR7 ag max-min: -1

More entries follow.
SMILES | NPYLR7 ag | NPYLR7 ag max-min
Cc1ccccc1C(c1cnccn1)N(C)C(=O)C1CCN(C(=O)c2ccc3c(c2)OCO3)CC1 (stereo not drawn) | -1 | -8
COCC(=O)Nc1ccc(Nc2cc(-n3cccn3)nc(C)n2)cc1 | -5 | -12
COCC(=O)NC(C)c1ccccc1Br (stereo not drawn) | 3 | 3
COc1ccccc1-c1cc(C(=O)N2CCN(c3cccc(C(F)(F)F)c3)CC2)nc2cc(-c3ccccc3)nn12 | 1 | 3
Cn1c(=O)c2c(ncn2CC(=O)OCc2ccccc2)n(C)c1=O | 14 | 12
CCOC(=O)CN1Cc2ccccc2N(CC(O)COCc2ccco2)CCC1=O (stereo not drawn) | -3 | 9
O=C1CSC2=NC3=C(CCCC3=C3SCCCS3)C(c3ccccc3)N12 (stereo not drawn) | 21 | 11
OC[C@@H](Cc1ccccc1)n1cnnc1 | 0&1 | 18&0
Cc1nc(N2CCCC(NC3CCCCC3)CC2)nc2ccc(F)cc12 (stereo not drawn) | 45 | 23
CC(Oc1ccccc1)C(=O)N1CCN(C(c2ccccc2)c2ccc(Br)cc2)CC1 (stereo not drawn) | 5 | 0
COCCN(CC(=O)N1CCc2sccc2C1COc1ccc(Cl)cc1)C(=O)NC(C)C (stereo not drawn) | -5 | -3
CCCCCC1C(CC(=O)OC)CCC1NCCN(C)C (stereo not drawn) | -3 | -3
COc1ccc(Cl)cc1-c1cccc(-n2cncc2C(=O)NCc2ccc(F)c(F)c2)c1 | 3 | 0
Cc1cnn(C(C)CC(N)=NO)c1 (stereo not drawn) | -6 | -8
CNC(=O)NC(=O)COC(=O)c1cc2c(s1)CCC2 | 10 | 18
Cc1cn2c3c(=O)n(Cc4ccc(Cl)cc4)c(=O)n(C)c3nc2n1C(C)C | -8 | -8
CCOc1ccc(-c2cnc(-c3cc(Cl)ccc3OCC(N)=O)[nH]2)cc1 | 21 | 17
Cc1ccc(NC(=O)N2CCC(C(=O)NC(C)C)CC2)c2[nH]ncc12 | 16 | 13
COc1ccc(-c2nc(OCC(C)C)nn2-c2ccc(NC(=O)c3ccc(C)cc3)cc2)cc1 | -1 | -1
CC(C)(C)n1ncc2c(=O)n(NC(=O)COc3ccccc3)cnc21 | 8 | 6
COC(=O)C1=C(C)NC2=C(C(=O)CC(c3ccc(OC)cc3)C2)C1c1ccc(C)cc1 (stereo not drawn) | 0 | -7
CC(CCc1ccco1)NC(=O)C1CCCN(S(=O)(=O)c2ccc(F)cc2)C1 (stereo not drawn) | -7 | -5
Cn1c(SCC(=O)NC2CCCCCC2)nc2sc3c(c2c1=O)CCCC3 | -1 | -3
N#Cc1ccccc1COc1ccccc1CO | 1 | 2
CCCNC(=O)C(C)N1CCN(c2cccc(C)c2)CC1 (stereo not drawn) | 3 | -1

(list continues)
SMILES | NPYLR7 ag | NPYLR7 ag max-min
CCCCN(Cc1cccn1C)C(=O)CN(CCC)C(=O)Nc1ccccc1OC | -2 | 6
COc1ccc(N2CCN(C(=O)c3ccc4c(c3)OCO4)C(C)C2=O)c(OC)c1 (stereo not drawn) | 8 | 5
CCCCCN(C)c1nc(-c2ccc(OCc3ccccc3)cc2)nc2ccccc12 | 2 | 9
CCOC(=O)c1cc(=O)n(-c2ccc(Cl)cc2)[nH]1 | 0 | -2
CCCCc1ccc(C(=O)N2CCSC2c2ccccc2C(F)(F)F)cc1 (stereo not drawn) | 13 | 14
COc1ccc(-c2cnc(-c3ccc(CNC(=O)c4cc(C)oc4C)cc3)[nH]2)cc1 | 0 | -4
CC(=O)Nc1ccc(-c2cn(CC3COc4ccccc4O3)nn2)cc1 (stereo not drawn) | 0 | -4
CC(C)CC(=O)N1CCc2ccccc2C1c1ccccc1F (stereo not drawn) | 22 | 8
CCN1CCN(C(=O)c2ccc(CSc3nnc(Cc4ccccc4)n3-c3ccccc3C)cc2)CC1 | 14 | 13
Cc1nnc(-c2ccc(NS(=O)(=O)c3cc(F)ccc3C)cc2)o1 | -1 | -3
Cc1cccc(C)c1NC(=O)C(C)(C)NC(=O)CN1C(=O)c2ccccc2C1=O | 3 | -2
CC(C(=O)NCC1CCCCC1)S(=O)(=O)Cc1nnnn1C1CC1 (stereo not drawn) | -3 | -4
CC1CN(c2cc(Oc3cccc(Cl)c3)ncn2)CCN1C(=O)Cc1ccccc1 (stereo not drawn) | 8 | 7
O=C(CSc1nc2c(c(=O)n1-c1ccc(OC(F)(F)F)cc1)SCC2)N1CCCCC1 | -4 | -8
O=C(CCNC(=O)c1ccc(F)cc1)NCc1cnc2ccccn12 | 4 | 1
Cc1ccsc1-c1nc(C(N)=O)c2[nH]c(=O)n(-c3ccccc3)c2n1 | 17 | 14
CCN(CC)CCNC(=O)COc1ccc(OC)cc1 | -11&1 | -15&-5
C[C@H](C(=O)NCc1ccc(F)c(F)c1)N1Cc2ccc(N3CCOCC3)nc2C1=O | 7 | 2
CCCCn1c(N)c(N(C)C(=S)NCCCN2CCOCC2)c(=O)[nH]c1=O | 3 | -1
O=C(CN1CCCCC1=O)NC1CCCc2c1cnn2-c1ccc(F)cc1F (stereo not drawn) | -2&9 | -3&3
O=C1C(=Cc2c[nH]c3ccc(Br)cc23)C(=O)c2ccccc21 | -6 | -9
Nc1c(N(CCC2=CCCCC2)CC(=O)Nc2ccccc2)c(=O)[nH]c(=O)n1Cc1ccccc1 | -17 | -17
Cc1cc(C)c2[nH]c(=O)cc(C)c2c1 | 0 | -3
Cc1c(C(=O)OC(C)C)[nH]c2c1C(=O)CCC2 | 13 | 7
CCOc1ccccc1N1CCN(C(=O)CC(c2ccc(Cl)cc2)c2c[nH]c3c(CC)cccc23)CC1 (stereo not drawn) | 8 | 20

Next part
SMILES | NPYLR7 ag | NPYLR7 ag max-min
CCOC(=O)C(c1cc(OC)ccc1OC)C1C=CC(NC(=O)c2cc(F)c(F)cc2F)C1 (stereo not drawn) | 4 | 0
COc1ccc(CN2CCNC(=O)C2CC(=O)NCc2cc(F)ccc2C)c(OC)c1 (stereo not drawn) | 4 | 0
c1ccc(-n2cccc2CN(Cc2ccsc2)CC2CCCO2)nc1 (stereo not drawn) | -1 | 2
CN(CC(=O)Nc1cccc(F)c1)Cc1nc2scc(-c3ccccc3)c2c(=O)[nH]1 | 5 | 0
COCCN(Cc1cccc(OS(=O)(=O)c2ccc(F)cc2)c1)C(=O)Nc1ccc(F)c(Cl)c1 | 8 | 6
CN(C(=O)c1cccc(S(=O)(=O)N2CCCC2)c1)C1CCCC1 | 7 | -1
CCn1cc(SCC(=O)N2CCC3(CC2)CNC(=O)C3)c2ccccc21 | 16 | 2
O=C(NCCC1=CCCCC1)C1CCC(CNc2c(N3CCCCC3)c(=O)c2=O)CC1 (stereo not drawn) | 3 | 1
O=C(NC(c1cccs1)C1CCCC1)c1ccc(N2CCOC2=O)cc1 (stereo not drawn) | -3 | -2
Cc1ccccc1CC(=O)OC(c1cccnc1)C(F)(F)F (stereo not drawn) | -2 | 16
Cc1ccc(-n2nnc(C(=O)N3CCCc4ccccc43)c2C)cc1 | -4 | -7
CC(=O)Nc1cccc2nc(CN3CCN(Cc4ccc(F)cc4)C(CCO)C3)ccc12 (stereo not drawn) | 5 | 3
COc1cccc(NC(=O)Nc2c(C)nc3sccn3c2=O)c1 | -2 | -4
CCc1[nH]n(-c2ccc(F)cc2)c(=O)c1C1=C([n+]2cccc(C)c2)C(=O)N(Cc2ccc(F)cc2)C1=O | 2 | 1
N#Cc1nc(NCCCOCC2CCOC2)ccc1Cl (stereo not drawn) | 9 | 5
Cc1ccc2nc(SC3CCCC3)nc(=O)n2c1 | 2 | -2
O=C(C1CC1)N1CCC(Oc2cccc(C(=O)N3CC4C[C@@H]5CC3C[C@H](C4)C5)c2)CC1 | 14&14 | 8&6
C=CCNC(=O)c1ccccc1N1CCC(NC(=O)COc2ccccc2)CC1 | -4 | -1
O=C(CSc1ccc(NC(=O)C2CC2)nn1)NCc1ccccc1Cl | -1 | -2
CCC1=C(C(=O)OC)C(c2ccc(Br)cc2)n2ncnc2N1 (stereo not drawn) | -7 | -6
CON=CC1=C(Sc2nc3ccccc3s2)CCCC1 | 4 | 3
CCN(CC)P1(=Nc2ccccc2[N+](=O)[O-])C(=C2N(C)c3ccccc3C2(C)C)C=NN1C (stereo not drawn) | 8 | 13
CN(C)CCN(Cc1nccn1Cc1cccc(Cl)c1)C(=O)C1CCC1 | 3 | 4
Cc1ccc(NC(=O)C(C2CCCC2)N2CCN(C(=O)c3ccco3)CC2)cc1 (stereo not drawn) | 2 | 15
Cc1ccc(C(=O)N(CCN(C)C)Cc2sccc2C)c(=O)[nH]1 | 0 | -3
COc1cc2c(cc1OC)C(CNS(=O)(=O)c1ccc(C)cc1)N(Cc1ccccc1F)CC2 (stereo not drawn) | 6 | 7
CCc1nc2n(n1)C(=O)C(C(c1ccc(Cl)cc1)N1CCC3(CC1)OCCO3)S2 (stereo not drawn) | -4 | -11

Compound activity (PubChem)

A portion of the library; rates above refer to the full screens.
